Source: PubChem BioAssay
ClpP mod: qHTS Assay for Activators of ClpP. Potency, µM (series often up to 57.5 µM), inactives show at the top dose activity change, negative = active. AID 651965, 2013. hit rate 1.9% among 340,000. ATP-dependent Clp protease proteolytic subunit (Bacillus subtilis (strain 168)), P80244. purified B. subtilis ClpP, FRET peptide cleavage, 20 min; active = well fitted falling curve with a large enough effect; inconclusive = small, poorly fitted or top-dose-only effect; inactive = no such curve, though single readings can be large or run the other way; further: potency means the concentration at half of the fitted maximal effect; the source files actives as falling curves though it sought activators and does not explain the sign; nearly all actives have a fitted effect of over 65% in size; many hits overshoot -100%
Target sequence (P80244 whole entry, looked up): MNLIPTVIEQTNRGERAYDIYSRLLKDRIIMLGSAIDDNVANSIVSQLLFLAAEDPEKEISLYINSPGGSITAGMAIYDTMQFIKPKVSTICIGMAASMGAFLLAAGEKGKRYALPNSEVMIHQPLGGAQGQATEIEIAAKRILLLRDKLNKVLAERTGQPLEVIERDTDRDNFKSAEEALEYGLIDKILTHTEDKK
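Purified B. subtilis ClpP, 10 microg/mL final in Tris/HCl pH8 with KCl, BSA, glycerol and Tween-20, cleaved an Abz/nitrotyrosine-quenched decapeptide. Fluorescence (ex 320, em 430) was read at 0 and 20 min at room temperature. Delta was normalized to 5.8 microM ADEP and DMSO/no-enzyme controls.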
PINK1 expr mod: changes PINK1 expression; PINK1 immunofluorescence, high-content cytometry, 24 h; hit rate 0.2% among 410,000; Potency, µM (doses to about 76.6 µM), for inactives: at the top dose activation (PINK1 increase), usual class: activators; active = well fitted activation curve with a large enough effect; inconclusive = small, poorly fitted or top-dose-only effect; inactive = flat fitted curve, though single readings scatter; cell line not stated here;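 further: potency means the concentration at half of the fitted maximal effect; % of control where 0% means no effect; nearly all actives have a fitted effect of over 65% in size; a mitochondrial uncoupler was the plate control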
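Decision-based qHTS: stable cells, 24 h exposure to five compound concentrations, CCCP as control. Fixed cells stained for PINK1 plus nuclear, mitochondrial and cell markers, cytometer read.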
gsp agonist: gsp mutant agonism. gsp mutant cells, cAMP HTRF, 30 min; control for the full effect not named in the record. Potency, µM (titrated, usually from 76.9 µM), for inactives: at the highest dose activation (cAMP increase), most hits filed as activators. hit rate 0.13% among 340,000. AID 624287; active = well fitted activation curve with a large enough effect; inconclusive = small, poorly fitted or top-dose-only effect, or another doubt; inactive = no such curve, though single readings can be large or run the other way; cell line not stated here;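 further: phosphodiesterase inhibitor Ro 20-1724 added with compounds to block cAMP breakdown; potency means the concentration at half of the fitted maximal effect; nearly all actives have a fitted effect of over 60% in size; about a fifth of the inactives were tested at one dose only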
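Cells stably selected in G418 were plated at 2000/well, grown 16-24 hr, then given compounds in DMSO with the PDE inhibitor […] (300 uM solution added) for 30 min at 37C; cAMP was read by HTRF.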
D2 agonist: activates the human D2 dopamine receptor | DiscoveRx PathHunter D2 beta-arrestin, luminescence, 90 min; 100% = 57 uM dopamine signal | activation, % (test concentration not listed) | hit rate 0.084% among 360,000 | AID 624465; in the data active = activation above about 40%; inconclusive = about 15% to 40%; inactive = below about 15%; further: compound concentration not given in the record; the text of the record calls up to 30% inactive
Target sequence (P14416 whole entry, looked up): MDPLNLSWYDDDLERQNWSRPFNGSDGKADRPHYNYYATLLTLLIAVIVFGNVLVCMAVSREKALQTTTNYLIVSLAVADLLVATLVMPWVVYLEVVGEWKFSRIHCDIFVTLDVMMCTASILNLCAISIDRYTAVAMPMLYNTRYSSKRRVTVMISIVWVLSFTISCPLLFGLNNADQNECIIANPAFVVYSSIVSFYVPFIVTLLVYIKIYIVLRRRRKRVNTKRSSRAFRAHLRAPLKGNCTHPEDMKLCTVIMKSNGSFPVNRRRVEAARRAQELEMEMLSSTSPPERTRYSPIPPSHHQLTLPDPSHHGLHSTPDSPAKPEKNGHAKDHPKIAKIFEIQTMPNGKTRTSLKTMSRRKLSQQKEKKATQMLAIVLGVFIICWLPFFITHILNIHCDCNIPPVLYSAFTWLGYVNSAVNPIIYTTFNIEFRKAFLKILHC
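Agonist mode: compounds alone added to overnight-plated D2 PathHunter cells for 90 min at 37 C, with 57 uM final dopamine (EC100) defining full response. Beta-arrestin recruitment detected by chemiluminescent reagent, read after 1 h at ambient temperature.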
Sfp PPTase inh: inhibitors of Bacillus subtilis Sfp phosphopantetheinyl transferase; Biochemical Sfp PPTase activity, qHTS; Potency, µM, for the others: max response, negative = inhibition, usual class: inhibitors; hit rate 3.5% among 310,000; active means well fitted inhibition curve with a large enough effect; inconclusive means small, poorly fitted or top-dose-only effect, or another doubt; inactive means no such curve, though single readings can be large or run the other way;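 further: the enzyme is Sfp with the accession as filed and its product quenches rhodamine fluorescence; potency means the concentration at half of the fitted maximal effect; 0% = enzyme reaction without inhibitor and -100% = no enzyme wells; top concentration of the series not given in the record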
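Reaction rates are the 30-min fluorescence difference (ex 525, em 598 nm) in wells containing 15 nM Sfp, 5 uM rhodamine-CoA and 12.5 uM BHQ-2-YbbR at pH 7.6 with 10 mM MgCl2.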
gsp antag: antagonists of gsp mutant (McCune-Albright syndrome); gsp-mutant cells, cAMP HTRF, 30 min; control for the full effect not named in the record; Potency, µM (doses to about 76.9 µM), without a hit: at the highest dose activity change, negative = inhibition, usual class: inhibitors; hit rate 0.4% among 340,000; AID 624288; active = falling curve of any shape with a large fitted effect; inconclusive = falling curve, mostly with a smaller effect; inactive = flat or rising curve; cell line not stated here;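 further: intracellular cAMP measured with PDE inhibitor Ro 20-1724 present during compound exposure; potency means the concentration at half of the fitted maximal effect; on the % scale 0 is the no-effect control and ±100 the full control effect; nearly all actives have a fitted effect of over 65% in size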
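G418-selected cells were plated in DMEM/10% FBS for 16-24 h at 37C, then treated with compounds plus the PDE inhibitor […] (300 uM solution added) for 30 min at 37C. Intracellular cAMP was measured by HTRF after 30 min lysis at room temperature.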
Menin MLL FP FL: menin-MLL binding inhibition, fluorescein peptide; Fluorescence polarization, fluorescein-MLL peptide displacement from menin; FP activity change, % at 61.4 µM; 290,000 tested, under 10 active; inconclusive = falling polarisation curve, or a change in total fluorescence; inactive = total fluorescence flat and polarisation flat or rising; no compound was filed as active; the % refers to the polarisation; negative = inhibition;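 further: % of control where 0% means no effect; inhibitors lower the polarisation; unlabelled MLL peptide was the positive control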
Active calls of the source: *; ? = inconclusive; nt = no result given; [ ] = dose if it differs, or a comment. Hits appear at their usual frequency. Share with any hit: about 5.1%.

SMILES	gsp antag	D2 agonist	PINK1 expr mod	gsp agonist	Sfp PPTase inh	Menin MLL FP FL	ClpP mod
[O-][n+]1cccc(C(O)c2ccccc2)c1 (stereo unspecified)	12%	-0.4	-0.7%	-13%	13%	3.0	0.0%
CC(=O)Nc1ccc(NC(=O)c2ccc(NS(=O)(=O)c3cc(C(C)(C)C)ccc3C)cc2)cc1	-7%	-1.9	0.4%	0%[15.4 µM]	11%	-0.4	nt
COc1ccc(S(=O)(=O)Nc2ccc(S(=O)(=O)NCC3CCCO3)cc2)cc1 (stereo unspecified)	-20%	7.0	0.2%	?	22%	1.7	nt
COc1ccc(OCC(O)Cn2c(Br)nc3c2c(=O)[nH]c(=O)n3C)cc1 (stereo unspecified)	-1%	-5.1	4.0%	-51%[inhibitor]	11%	-3.1	-5.0%
COc1ccc(NC(=O)C(NC(=O)CNC(C)=O)c2ccc(C)cc2)cc1 (stereo unspecified)	9%	-4.8	-1.0%	-2%	0%	4.2	-0.1%
COc1ccc(NC(=O)C2CC(=O)N(c3cccc(C)c3C)C2)cc1 (stereo unspecified)	-1%	-3.4	-1.3%	-6%	1%	-1.8	-2.0%
CCc1noc(C)c1C(=O)N(CCCOC)c1c(N)n(Cc2ccccc2)c(=O)[nH]c1=O	13%	-6.5	-2.2%	23%[15.4 µM]	nt	nt	nt
CC(/C=N/Nc1ccc2nncn2n1)=C\c1ccccc1	1%	-1.2	7.0%	-2%	-16%	0.5	0.1%
COC(=O)c1cc(NS(=O)(=O)c2cccs2)cc(NS(=O)(=O)c2cccs2)c1	-15%	-19	-2.2%	13%[15.4 µM]	nt	nt	nt
CC(OC(=O)COc1ccc(C#N)cc1)C(=O)c1ccccc1 (stereo unspecified)	-4%	3.4	3.7%	-12%	nt	nt	-3.9%
C=CCn1c(SCC(=O)Nc2ccc3c(c2)OCCO3)nc2cc(C(=O)O)ccc2c1=O	7%	-0.9	-0.9%	31%	nt	nt	-1.4%
CN(C)c1ccc(P(=O)(OCc2ccccc2)C(O)c2cccnc2)cc1 (stereo unspecified)	3%	-0.3	2.2%[38.3 µM]	-40%[inhibitor]	-8%	-0.1	-2.5%
Cc1sc(NC(=O)c2ccco2)c(C(c2ccncc2)N2CCOCC2)c1C (stereo unspecified)	-8%	-2.4	-2.1%	1%	-2%	-0.9	-1.3%
CC(=O)c1ccc(N2C(=O)CC(N3CCN(S(=O)(=O)c4cc(C)ccc4C)CC3)C2=O)cc1 (stereo unspecified)	0%	4.8	2.9%	0%	nt	nt	nt
COc1ccc(CNC(=O)c2csc(Cc3ccc(OC)cc3)n2)cc1	-1%	0.8	-1.4%	-21%	-2%	2.7	-2.4%
COC(=O)c1sc(NC(=O)c2ccoc2C)nc1C	0%	-1.8	-2.4%	-29%	12%	3.7	-0.4%
C=CCOC(=O)C1=C(C)Nc2ncnn2C1c1cccs1 (stereo unspecified)	-14%	4.1	14%[38.3 µM]	9%	13%	3.5	-2.2%
Cc1nc2ccccn2c1C(=O)NNC(=S)Nc1ccccc1	-7%	-8.4	0.6%	-3%	7%	-0.2	nt
Cc1cc(C(=O)CN2C(=O)NC(C)(c3ccccc3)C2=O)c(C)n1CC1CCCO1 (stereo unspecified)	21%	0.4	-0.8%	-7%[15.4 µM]	12%	2.5	?
O=C(CSc1nnc(CCCOc2ccc(Cl)cc2Cl)o1)Nc1ccc(C(=O)O)cc1	-10%	1.8	0.1%	14%[15.4 µM]	8%	6.9	12%
NC(CCc1ccccc1)c1csc(Nc2nncc3ccccc23)n1 (stereo unspecified)	nt	5.5	-0.8%	nt	nt	nt	-6.0%
CCn1c(SCC(=O)c2cc(C)ccc2C)nc2cc(S(=O)(=O)N3CCOCC3)ccc21	?	-0.7	-0.3%	-17%	15%	2.5	-0.8%
CCCc1cc(=O)oc2cc(C)cc(OCC(=O)N3CCC(C(=O)O)CC3)c12	5%	3.1	1.1%	nt	2%	-5.9	3.8%
COc1ccc(NC(=O)C2CCCN2S(=O)(=O)c2ccc(Cl)cc2)cc1 (stereo unspecified)	-6%	-1.3	0.9%	9%[15.4 µM]	9%	0.0	nt
COc1ccc(CNC(=O)O[C@H]2CN(C(=O)OC(C)C)N(C(=O)OC(C)C)[C@@H]3CN(S(=O)(=O)c4ccc(C)cc4)C[C@]23O)cc1OC	nt	-9.0	2.5%	-22%	nt	nt	0.6%
O=C1c2ccccc2C(=O)N1CCc1csc(-c2cccc(Cl)c2)n1	26%	-1.8	4.2%[38.3 µM]	-50%[inhibitor]	-6%	1.3	-1.7%
CCOc1ccc(-c2noc(CCCC(=O)NC3CCCCC3)n2)cc1OC	0%	5.5	0.1%	-4%[15.4 µM]	13%	0.7	nt
COc1ccc(NC(=O)C(=O)c2cn(CC(=O)N3CCOCC3)c3ccccc23)cc1OC	-6%	3.1	0.4%	22%	11%	nt	-2.2%
NC(=O)[C@@H]1CCCNc2c(F)cc([N+](=O)[O-])cc2C(=O)N[C@@H](CCC(=O)O)C(=O)N[C@@H](CO)C(=O)N1	8%	-0.3	-0.6%	-48%[inhibitor]	6%	1.4	0.9%
CC1(C)CC[C@]2(C(=O)O)CC[C@@]3(C)C(=CCC4[C@@]5(C)CCC(O)[C@@](C)(CO)C5CC[C@@]43C)C2C1 (stereo partly specified)	nt	nt	-0.1%	nt	5%	3.5	nt
CCCCOc1ccc(CN2CCC(O)CC2)cc1	12%	-1.5	-2.9%[38.3 µM]	14%	79µM*	-1.8	0.7%
Cc1ccccc1-c1nc(-n2ccnc2)c2ccccc2n1	nt	nt	2.0%	nt	-29%	-1.1	nt
COCCn1c(=O)[nH]c2cc(C(=O)NCC3CCCO3)ccc2c1=O (stereo unspecified)	-3%	-1.6	0.5%	5%	8%	2.6	28µM*
COc1ccc(Br)cc1S(=O)(=O)n1c([N+](=O)[O-])cnc1C	7%	-2.8	-0.3%	6%	-2%	4.3	-3.2%
CCN(CC)S(=O)(=O)c1ccccc1/C=N\O	-7%[15.4 µM]	-1.8	1.1%	11%	-6%	0.0	-3.2%
BrC(/C=N/N1CCN(Cc2ccccc2)CC1)=C/c1ccccc1	0%	-2.9	2.3%	15%	0%	1.4	nt
CCN(Cc1nc2cc(Cl)ccc2c(=O)[nH]1)C(=O)c1cc2c(s1)CCCCC2	-9%	-2.7	?	-35%[inhibitor]	nt	nt	3.1%
CC(C(=O)Nc1cccnc1)n1cc([N+](=O)[O-])cn1 (stereo unspecified)	14%	-2.6	1.2%	15%[15.4 µM]	27%	-3.4	-3.5%
O=C(CN1C(=O)COc2ccccc21)N1CCN(c2ccccc2F)CC1	-2%	-0.8	?	-45%[inhibitor]	14%	0.0	-0.6%
CCOC(=O)CSc1n[nH]c(-c2ccco2)n1	-2%	-1.2	3.0%	-6%	5%	0.6	1.1%
CCCN1C2CCCC1CC(NC(=O)c1ccc(OC)cc1)C2 (stereo unspecified)	14%	-5.3	1.4%	-10%	24%	1.2	-1.7%
Cc1ccc(/C=N/NC(=O)CSc2nnc(-c3ccccc3)n2-c2ccc(Cl)cc2)o1	?	14	2.0%	-24%	-28%	4.1	1.2%
Cc1ccc(C)c(NC(=O)C(c2ccccc2)N2CCOCC2)c1 (stereo unspecified)	-4%	-4.0	3.4%	3%[15.4 µM]	11%	-0.8	nt
CC(C)NS(=O)(=O)c1ccc(OCC(=O)N2CCN(c3ccccc3)CC2)cc1	-3%	6.1	0.7%	-27%	11%	-1.5	nt
Cc1cccc(Cl)c1NC(=O)N1CCCN(c2ncccc2[N+](=O)[O-])CC1	-3%	-0.6	-2.1%	-15%[15.4 µM]	18%	1.4	0.2%
COC(=O)c1ccc(COc2ncnc3sccc23)cc1	-6%	-2.9	0.6%	-31%[inhibitor]	11%	1.3	1.6%
Cc1ccc(N=Nc2c(C)[nH]n(-c3ccccc3)c2=O)cc1	16%	0.6	7.5%	-19%	6%	1.5	0.3%
Cc1onc(-c2c(F)cccc2Cl)c1C(=O)Nc1nnc(C2CC2)s1	-18%	-3.0	-0.9%	-35%[inhibitor]	-5%	-2.5	-1.0%
O=C(NC(Cc1ccccc1)C(=O)O)OCC1c2ccccc2-c2ccccc21 (stereo unspecified)	-6%	-2.0	-0.5%	-34%[inhibitor][15.4 µM]	17%	1.0	nt
CNS(=O)(=O)c1cc(C(=O)OCC(=O)NC2CCCc3ccccc32)ccc1Cl (stereo unspecified)	-4%	-0.9	3.8%	7%	-2%	-6.7	-1.0%

Next part.
SMILES	gsp antag	D2 agonist	PINK1 expr mod	gsp agonist	Sfp PPTase inh	Menin MLL FP FL	ClpP mod
COc1cc(NS(=O)(=O)c2ccc(NC(=S)NC(=O)c3ccco3)cc2)nc(OC)n1	?	-5.3	0.6%	?	-25%	4.7	-0.4%
CCOC(=O)COc1cc(OCC(=O)OCC)c2c(=O)cc(-c3ccccc3)oc2c1	-32%	-2.5	5.7%[38.3 µM]	8%	11%	1.9	28µM*
O=C(O)c1ccc(NS(=O)(=O)c2cc(C(=O)O)ccc2Br)cc1	4%	6.5	-0.8%	-33%[inhibitor]	7%	2.2	-2.1%
O=C(NCc1ccccc1Cl)C1CCCN(S(=O)(=O)c2cnc[nH]2)C1 (stereo unspecified)	0%	-4.9	2.3%	-22%	4%	1.0	-1.2%
Cc1c(Cl)cccc1NC(=S)NC(=O)c1ccccc1	nt	-2.5	0.2%	-5%	nt	nt	-1.3%
CCCCCCC1CC(=CN(C)C)C(=O)O1 (stereo unspecified)	nt	-0.3	27%	?	nt	nt	1.0%
Cn1ccnc1CC(O)(c1ccccc1)c1ccccc1	-20%	3.5	-0.5%	?	18%	1.9	nt
O=C(COc1ccc(S(=O)(=O)NCc2ccccc2)cc1)N1CCOCC1	13%	-3.2	-3.2%[38.3 µM]	10%	6%	2.8	-3.0%
O=C(CSc1nc2ccccc2o1)N1CCN(c2ccccc2)CC1	2%	1.4	2.3%	-19%	-8%	-7.5	-3.6%
